# Bioassay records from PubChem BioAssay.
# DUX4 txn inh – inhibitors of DUX4-driven ZSCAN4 reporter expression, primary screen, 293T cells, Gaussia and Italica luciferase; 0.8% of 37,000 active; AID 1224904, 2016; activity change, negative = inhibition, % (test concentration not listed); 293T-iDUX4 ZSCAN4-Gaussia luciferase reporter, 24 h; stronger effect = lower value;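 active = -10% or lower and over 25 points stronger than a control reporter; inconclusive = -10% or lower with a smaller gap; inactive = above -10%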;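 note: 0% = median of neutral control wells and -100% = median of positive control wells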
# DUX4 txn inh difference – second read-out of DUX4 txn inh, no call of its own (marks repeat the call); Gaussia minus Italica difference, %; measured here: selective DUX4 reporter inhibition;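 worked out from the two reporters; negative = selective loss of the DUX4 reporter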
# DUX4 txn inh control – recorded beside DUX4 txn inh, whose call it bears; activity change, negative = inhibition, %; measured here: Italica tet-on control reporter;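 0 = neutral control and -100 = positive control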
# Active calls of the source: *; ? = inconclusive; nt = no result given. This is a subset, so the mix of outcomes need not match the whole.
SMILES,DUX4 txn inh,DUX4 txn inh difference,DUX4 txn inh control
C[C@@H]1CN([C@H](C)CO)C(=O)c2cc(C#CC(C)(C)O)cnc2O[C@@H]1CN(C)Cc1ccccn1,4.0,-3.2,7.1
CO[C@@H]1CN(C)C(=O)c2cc(NS(=O)(=O)c3cn(C)cn3)ccc2OC[C@@H](C)N(CC2CC2)C[C@@H]1C,3.8,1.5,2.2
COc1ccc2c3c(n(C)c2c1)[C@H](CO)N(C(=O)Nc1ccc(F)cc1)CC31CN(S(=O)(=O)c2cccc(F)c2)C1,?,nt,nt
O=C(C[C@H]1C[C@H]2c3cc(NC(=O)c4ccc5c(c4)OCO5)ccc3O[C@H]2[C@H](CO)O1)NCc1cc(F)ccc1F,?,nt,nt
COCC(=O)Nc1ccc2c(c1)C(=O)N(C)C[C@@H](OC)[C@H](C)CN(CC1CCCCC1)[C@H](C)CO2,-3.6,-6.8,3.2
Cc1ccc(S(=O)(=O)N2C[C@@H]3N[C@H](C2)C3c2ccc(-c3ccncc3)cc2)cc1 (stereo partly specified),?,6.9,-4.4
C[C@H](CO)N1C[C@H](C)[C@H](CN(C)C(=O)Nc2ccc3c(c2)OCO3)OCc2cn(nn2)CCCC1=O,3.2,0.3,2.9
O=C(Cc1cccnc1)N1[C@@H](CO)[C@H](c2ccccc2)[C@@H]1CNCC1CCC1,-1.6,3.3,-4.9
O=C(c1ccc(F)cc1)N1C[C@H]2[C@@H](c3ccccc31)[C@H](CO)N2C(=O)c1ccc(F)cc1,-0.8,3.6,-4.4
CCC(=O)N1CCCCN2[C@H](CO)[C@H](c3ccc(-c4cccc(C(=O)N(C)C)c4)cc3)[C@H]2C1,7.0,6.0,1.0
O=C(C[C@@H]1C[C@@H]2c3cc(NC(=O)NC4CCCC4)ccc3O[C@@H]2[C@H](CO)O1)NCc1ccccc1F,6.6,5.7,0.9
COc1ccc(S(=O)(=O)N(C)C[C@@H]2Oc3c(NC(=O)C4CCOCC4)cccc3C(=O)N([C@H](C)CO)C[C@H]2C)cc1,1.0,3.2,-2.2
O=C([C@H]1[C@H](CO)[C@H]2Cn3c(ccc(/C=C/c4ccccc4)c3=O)[C@@H]1N2)N1CCCCC1,-5.1,-18.6,13.5
C[C@@H](NC(=O)C[C@@H]1CC[C@@H]2[C@@H](COc3ccc(NS(=O)(=O)c4ccc(Cl)cc4)cc3C(=O)N2C)O1)c1ccccc1,-1.4,-2.3,0.9
C/C=C/c1ccc([C@H]2[C@@H](CO)N(CC3CC3)[C@@H]2CNC(=O)c2ccccc2)cc1,-2.1,-2.5,0.5
COc1ccccc1S(=O)(=O)N1CC[C@@H]2[C@H](CO)Nc3ccc(-c4ccccc4)cc3[C@@H]21,?,nt,nt
O=C(Cc1ccncc1)NCC[C@@H]1CC[C@H](NC(=O)Nc2cccc(F)c2)[C@@H](CO)O1,6.2,4.6,1.6
CN1CCN(C(=O)c2cc3c(c(-c4cccc(C#CCC5CCCC5)c4)n2)[C@H](CCO)N(S(=O)C(C)(C)C)C3)CC1 (stereo partly specified),-0.8,0.2,-1.0
COCC(=O)N1CC[C@@H]2[C@H]1c1cc(-c3cccc(F)c3)ccc1N(C)[C@H]2CO,16.3,12.6,3.7
CO[C@H](CN(C)S(=O)(=O)c1cn(C)cn1)[C@@H](C)CN(C(=O)Nc1ccc(C(F)(F)F)cc1)[C@@H](C)CO,-2.2,-2.8,0.6
CN(C)CC#Cc1ccc([C@@H]2[C@H](CO)N3C(=O)CN(C(=O)c4ccccc4)C[C@@H]23)cc1,3.2,0.2,3.0
COCC(=O)N1CC2(C1)[C@H](c1ccc(-c3ccc(F)cc3)cc1)[C@@H](CO)N2C(=O)C1CC1,-1.7,4.7,-6.4
CN1CCN(C(=O)C[C@H]2C=C[C@@H](NC(=O)Nc3ccccc3F)[C@@H](CO)O2)CC1,8.5,7.1,1.4
COc1cccc(-c2cn(CC[C@H]3CC[C@@H](NC(=O)CN(C)C)[C@H](CO)O3)nn2)c1,-0.3,-1.4,1.1
COCC(=O)N1[C@@H](CO)[C@@H](c2ccccc2)C12CN(Cc1cccc(OC)c1)C2,2.8,-3.9,6.7
C[C@H]1CN([C@@H](C)CO)C(=O)Cc2cc(NS(=O)(=O)c3ccc(F)cc3)ccc2O[C@@H]1CN(C)Cc1ccncc1,-0.7,-5.8,5.1
CO[C@@H]1CN(C)C(=O)c2cc(NC(=O)c3cc(C)on3)ccc2OC[C@@H](C)N(C)C[C@@H]1C,4.6,1.0,3.6
O=C(NCC1CC1)[C@@H]1[C@@H](CO)[C@@H]2Cn3c(ccc(-c4ccccc4)c3=O)[C@@H]2N1CC1CC1,-5.6,-2.1,-3.4
CC(C)NC(=O)N1[C@@H]2CN(C(=O)c3ccccn3)c3ccccc3[C@@H]2[C@@H]1CO,-2.8,0.8,-3.6
CCCC(=O)N1CC2(CCN(CC3CCCC3)CC2)c2c([nH]c3cc(OC)ccc23)[C@H]1CO,0.5,-8.9,9.4
N#Cc1cccc(-c2ccc([C@@H]3[C@H](CO)N4CCCCN(S(=O)(=O)c5ccccc5)C[C@@H]34)cc2)c1,-1.8,-12.4,10.5
C/C=C/c1ccc([C@@H]2[C@H](CO)N(C(=O)CN(C)C)C23CN(C(=O)C2CCOCC2)C3)cc1,1.5,-4.2,5.7
C[C@H](CO)N1C[C@H](C)[C@@H](CN(C)C(=O)C2CCCCC2)OCc2cnnn2CCCC1=O,2.0,2.5,-0.5
C[C@@H]1CCCCO[C@@H](CN(C)Cc2ccc(C(=O)O)cc2)[C@@H](C)CN([C@@H](C)CO)C(=O)c2cc(NC(=O)NC3CCCCC3)ccc2O1,-0.5,1.5,-1.9
O=C(CC1CC1)N1CC(=O)N2[C@@H](CO)[C@@H](c3ccc(-c4ccccc4)cc3)[C@@H]2C1,9.6,4.8,4.8
CN(C)CC(=O)N1[C@H](C#N)[C@@H](c2ccccc2-c2cccc(C(=O)N(C)C)c2)[C@H]1CO,5.8,-4.0,9.8
COc1ccc2c3c(n(C)c2c1)[C@H](CO)N(C(=O)Cc1ccccn1)CC31CN(Cc2ccccn2)C1,10.2,0.4,9.8
C[C@@H]1CN([C@@H](C)CO)C(=O)c2cccc(NC(=O)c3cnccn3)c2O[C@H]1CN(C)S(=O)(=O)c1cn(C)cn1,-0.4,-2.0,1.6
CO[C@H]1CN(C)C(=O)c2cc(C#N)ccc2OCC[C@@H]2CC[C@@H](OC)[C@@H](CN(C)C(=O)[C@@H]1C)O2,-3.1,-4.7,1.5
C[C@H](CO)N1C[C@H](C)[C@H](CN(C)C(=O)Nc2ccc3c(c2)OCO3)Oc2ccc(NC(=O)NC3CCCCC3)cc2C1=O,4.6,2.9,1.7
CCCNC(=O)N1C[C@@H](O)COC[C@@H]2O[C@H](CC(=O)NCc3ccncn3)CC[C@H]21,5.9,-2.4,8.4
COc1ccc(CN2CC3(C2)CN(Cc2ccc4c(c2)OCO4)[C@@H](CO)c2[nH]c4cc(OC)ccc4c23)cc1,?,nt,nt
O=C(CN1CCOCC1)N1CCCCN2[C@H](CO)[C@@H](c3ccc(C#Cc4ccccc4F)cc3)[C@H]2C1,-7.2,5.1,-12.4
C[C@H]1CN([C@@H](C)CO)C(=O)c2cccc(NC(=O)c3nc4ccccc4s3)c2O[C@@H]1CN(C)C(=O)Nc1ccc2c(c1)OCO2,-4.6,-5.1,0.5
CC=Cc1ccc2n(c1=O)C[C@@H]1[C@@H](CO)[C@H](C(=O)NC3CCCC3)N(Cc3cccnc3)[C@H]21 (mixture of isomers),0.9,0.7,0.2

# Compound profiles, from the list above. Values in the order: DUX4 txn inh, DUX4 txn inh difference, DUX4 txn inh control
# O=C(CC1CC1)N1CC(=O)N2[C@@H](CO)[C@@H](c3ccc(-c4ccccc4)cc3)[C@@H]2C1 is listed with 9.6, 4.8, 4.8
# C/C=C/c1ccc([C@@H]2[C@H](CO)N(C(=O)CN(C)C)C23CN(C(=O)C2CCOCC2)C3)cc1 is listed with 1.5, -4.2, 5.7
# CN(C)CC(=O)N1[C@H](C#N)[C@@H](c2ccccc2-c2cccc(C(=O)N(C)C)c2)[C@H]1CO is listed with 5.8, -4.0, 9.8
# C[C@@H]1CN([C@@H](C)CO)C(=O)c2cccc(NC(=O)c3cnccn3)c2O[C@H]1CN(C)S(=O)(=O)c1cn(C)cn1 is listed with -0.4, -2.0, 1.6
# C[C@H](CO)N1C[C@H](C)[C@@H](CN(C)C(=O)C2CCCCC2)OCc2cnnn2CCCC1=O is listed with 2.0, 2.5, -0.5

# Back to the main list; the 2 compounds before the break are reprinted first.
SMILES,DUX4 txn inh,DUX4 txn inh difference,DUX4 txn inh control
C[C@H]1CN([C@@H](C)CO)C(=O)c2cccc(NC(=O)c3nc4ccccc4s3)c2O[C@@H]1CN(C)C(=O)Nc1ccc2c(c1)OCO2,-4.6,-5.1,0.5
CC=Cc1ccc2n(c1=O)C[C@@H]1[C@@H](CO)[C@H](C(=O)NC3CCCC3)N(Cc3cccnc3)[C@H]21 (mixture of isomers),0.9,0.7,0.2
N#C[C@H]1[C@H](c2ccc(-c3ccccc3)cc2)[C@@H](CO)N1C(=O)Cc1ccccc1,-1.8,-3.6,1.9
O=C(C1CCOCC1)N1CC(=O)N2[C@@H](CO)[C@H](c3ccc(Br)cc3)[C@@H]2C1,5.5,-3.3,8.8
COCC(=O)N1[C@H](CO)[C@@H]2c3ccccc3N(C(=O)Nc3ccccc3Cl)C[C@@H]21,2.0,0.8,1.2
COc1ccc(S(=O)(=O)N(C)C[C@@H]2Oc3cc(-c4ccccc4OC)ccc3S(=O)(=O)N([C@@H](C)CO)C[C@H]2C)cc1,-4.7,-8.9,4.2
CC(=O)N1[C@@H](CO)[C@@H](c2ccccc2)[C@@H]1CN(CC1CCC1)C(=O)CN(C)C,-1.1,-4.4,3.3
CCCNC(=O)c1cc2c(c(-c3cccc(-c4cccc(OC)c4)c3)n1)[C@@H](CCO)N([S@](=O)C(C)(C)C)C2,-2.1,-4.4,2.3
N#C[C@H]1[C@H](c2ccccc2)[C@H](CO)N1S(=O)(=O)Cc1ccccc1,2.5,-5.0,7.5
C[C@@H]1CN([C@@H](C)CO)C(=O)c2c(c3ccccc3n2C)-c2ccccc2CO[C@H]1CN(C)C(=O)c1ccncc1,5.7,1.9,3.9
C[C@H](CO)N1C[C@H](C)[C@@H](CN(C)Cc2ccc(Cl)c(Cl)c2)Oc2c(NS(=O)(=O)c3ccc(F)cc3)cccc2C1=O,-2.2,-0.7,-1.4
O=C(NCCc1ccccc1)[C@H]1[C@H](CO)[C@H]2Cn3c(cccc3=O)[C@H]2N1Cc1ccncc1,4.5,2.5,2.0
CN1C(=O)c2cc(NC(=O)Nc3ccccc3Cl)ccc2OC[C@@H]2O[C@H](CC(=O)O)CC[C@@H]21,-2.4,-1.0,-1.4
O=C([C@H]1[C@H](CO)[C@H]2Cn3c(ccc(C4=CCCC4)c3=O)[C@@H]1N2)N1CCCCC1,0.4,-1.0,1.3
CNC(=O)C[C@@H]1CC[C@H]2[C@@H](COc3ccc(NC(=O)NC4CCCC4)cc3C(=O)N2C)O1,17.3,30.0,-12.7
COc1ccccc1-c1ccc2n(c1=O)C[C@H]1[C@H](CO)[C@@H](C(=O)NC3CCC3)N(C(C)=O)[C@@H]21,5.3,2.4,2.9
N#C[C@@H]1[C@H](c2ccc(C#CC3(O)CCCC3)cc2)[C@H](CO)N1C(=O)C1CCC1,-3.2,0.4,-3.6
COc1ccc(S(=O)(=O)N[C@H]2CC[C@H](CCn3cc(-c4ccccc4F)nn3)O[C@H]2CO)cc1,8.0,2.9,5.0
COC(=O)C[C@H]1CC[C@@H]2[C@H](COc3ccc(NC(=O)Nc4cccc(C#N)c4)cc3C(=O)N2C)O1,0.2,-1.4,1.7
CN1CCN(C(=O)C[C@@H]2CC[C@H]3[C@@H](COC[C@H](O)CN3C(=O)Cc3ccccc3)O2)CC1,0.8,-7.4,8.1
C[C@@H]1CN([C@@H](C)CO)C(=O)CCCn2cc(nn2)CO[C@@H]1CN(C)Cc1cccnc1,-2.4,-2.8,0.5
COc1ccc(-c2ccc3c(c2)[C@@H]2[C@@H](CCN2S(=O)(=O)c2ccccc2F)[C@H](CO)N3)cc1,-6.5,12.2,-18.8
COC(=O)[C@@H]1[C@@H](CO)[C@@H]2Cn3c(ccc(-c4cncnc4)c3=O)[C@@H]2N1C(=O)C1CCC1,4.6,0.6,4.0
Cc1ccccc1-c1ccc2c(c1)O[C@@H](CN(C)C(=O)Nc1ccc(C(F)(F)F)cc1)[C@@H](C)CN([C@H](C)CO)S2(=O)=O,-2.6,-2.4,-0.2
O=C(CN1CCOCC1)N[C@H]1CC[C@H](CCNC(=O)Nc2cc(F)ccc2F)O[C@@H]1CO,4.4,3.6,0.9
Cc1cccc(S(=O)(=O)N2[C@@H]3Cn4c(cccc4=O)[C@H]2[C@@H](C(=O)N(C)C)[C@@H]3CO)c1,1.5,1.0,0.5
CCS(=O)(=O)N1CC(=O)N2[C@H](CO)[C@@H](c3ccc(C#Cc4ccc(F)cc4)cc3)[C@@H]2C1,-1.5,4.1,-5.6
CN(C)Cc1cn(CC[C@@H]2CC[C@@H](N)[C@H](CO)O2)nn1,1.2,-3.3,4.5
COc1ccc(-c2ccc([C@H]3[C@@H](C#N)N(C(=O)c4cccc(F)c4)[C@@H]3CO)cc2)cc1,0.1,-2.9,3.0
O=C(NC[C@H]1[C@@H](c2ccccc2)[C@@H](CO)N1C(=O)C1CC1)NC1CCCC1,-3.2,-6.2,3.0
C[C@@H]1CN([C@@H](C)CO)C(=O)Cc2cc(NC(=O)Nc3ccc(F)cc3)ccc2O[C@@H]1CN(C)Cc1ccc(-c2ccccc2)cc1,-1.4,3.0,-4.4
O=C(C[C@@H]1C[C@@H]2c3cc(NS(=O)(=O)c4ccc(F)cc4)ccc3O[C@@H]2[C@H](CO)O1)NCCc1ccccc1,5.5,4.8,0.8
COCC#Cc1ccc([C@@H]2[C@@H](CO)N3C(=O)CN(C(=O)c4cccnc4)C[C@H]23)cc1,14.9,1.6,13.2
O=C(C[C@@H]1CC[C@H]2NC[C@@H](O)COC[C@@H]2O1)N1CCc2ccccc2C1,-3.3,-7.6,4.3
